Screening results deposited in PubChem BioAssay by National Center for Advancing Translational Sciences (NCATS).
Lassa entry – Lassa virus entry inhibition; Lassa virus pseudotyped entry inhibition, cell-based qHTS; control for the full effect not named in the record; many of its hits are not listed in these tables; Potency, µM (series often up to 49.2 µM), for the others: top-dose activity change, negative = inhibition, usual class: inhibitors; 18,000 compounds, 4.1% hits; active = well fitted inhibition curve with a large enough effect; inconclusive = small, poorly fitted or top-dose-only effect; inactive = no such curve, though single readings can be large or run the other way; tested in HEK293 cells; further: luciferase read-out
MARV entry inh – Marburg virus entry inhibition | Marburg virus pseudotype entry/binding inhibition, cell-based; control for the full effect not named in the record; many of its hits are not listed in these tables | Potency, µM (titrated, usually from 49.2 µM), inactives show at the highest dose activity change, negative = inhibition, actives largely listed as inhibitors | 18,000 compounds, 6.5% hits; active means well fitted inhibition curve with a large enough effect; inconclusive means small, poorly fitted or top-dose-only effect; inactive means no such curve, though single readings can be large or run the other way; tested in HEK293 cells; further: luciferase read-out
* hit, by the source's call; & = joins results of further samples; [ ] = remark or other dose. On the % scale 0 is the no-effect control and ±100 the full control effect; potency means the concentration at half of the fitted maximal effect. Some of the compounds tested; count on the stated rates, not on these rows.

How did COC(=O)C1=C(C)N(Cc2ccccc2)C(=O)N[C@H]1c1ccccc1 do in these assays?
Lassa entry: 3.3%; MARV entry inh: -12.1%

Results for CCOP(=O)(OCC)C(=Cc1cc(C(C)(C)C)c(O)c(C(C)(C)C)c1)P(=O)(OCC)OCC ?
Lassa entry: inconclusive; MARV entry inh: -5.6%

What do the screens show for `COC(=O)N[C@H](C(=O)N[C@@H](Cc1ccccc1)[C@@H](O)CN(Cc1ccc(-c2ccccn2)cc1)NC(=O)[C@@H](NC(=O)OC)C(C)(C)C)C(C)(C)C`?
Lassa entry: inconclusive; MARV entry inh: inconclusive

What do the screens show for `COCc1nc2c([nH]1)c(=O)n(C)c(=O)n2CC(C)C`?
Lassa entry: -9.7%&-1.7%&-8.8%; MARV entry inh: 6.3%&17.8%&8.1%

How did COc1cc(C)c(CN2CCc3nnc(C(C)NC(=O)c4cccnc4)n3CC2)cc1C (stereo unspecified) do in these assays?
Lassa entry: -12.2%; MARV entry inh: 1.1%

How did Cn1ccc2c(-c3ccc(C(=O)O)cc3)cc3c(c21)C1CCC3C1 (stereo unspecified) do in these assays?
Lassa entry: 107.7%[activator]; MARV entry inh: 114.7%[activator]

What do the screens show for `COc1cccc2oc(-c3ccccc3)cc(=O)c12`?
Lassa entry: -18.4%&-10.1%; MARV entry inh: -16.0%&54.1%

Results for O=S1(=O)CC(N2CCN(CC3CC3)CC2)CN1Cc1ccccc1 (stereo unspecified) ?
Lassa entry: -3.0%; MARV entry inh: -12.2%

What do the screens show for `O=C(O)COc1ccc(OCCNC[C@H](O)COc2ccccc2)cc1`?
Lassa entry: 1.1%; MARV entry inh: -6.6%

What do the screens show for `COc1ccc2[nH]c3c(C)c4cc[n+](C)cc4c(C)c3c2c1`?
Lassa entry: -21.0%; MARV entry inh: -13.2%

Results for Cc1c(C(=O)NN2CCCCC2)nn(-c2ccc(Cl)cc2Cl)c1-c1ccc(Cl)cc1 ?
Lassa entry: 15.8µM*; MARV entry inh: 14.1µM*

Results for CC(=O)N[C@@H](CC(C)C)C(=O)N[C@@H](CCCNC(=N)N)C(=O)N[C@@H](Cc1cnc[nH]1)C(=O)N[C@@H](Cc1ccc(O)cc1)C(=O)N[C@@H](CC(C)C)C(=O)N[C@@H](CC(N)=O)C(=O)N[C@@H](CC(C)C)C(=O)N[C@@H](CC(C)C)C(=O)N[C@H](C(=O)N[C@@H](CCCNC(=N)N)C(=O)N[C@@H](CCC(N)=O)C(=O)N[C@@H](CCCNC(=N)N)C(=O)N[C@@H](Cc1ccc(O)cc1)C(N)=O)[C@@H](C)O ?
Lassa entry: -4.9%; MARV entry inh: 5.8%

How did CCS(=O)(=O)c1ccc(OC)c(Nc2ncc(-c3ccccc3Cl)o2)c1 do in these assays?
MARV entry inh: inconclusive

How did CCCCCCCCOc1c(OC)cc(/C=C/C(=O)N2CCN(c3ccc(C)c(C)c3)CC2)cc1OC do in these assays?
Lassa entry: -19.6%; MARV entry inh: 9.0%

What do the screens show for `COc1cccc([C@H]2Oc3ccc(OC)cc3C(=NOC[C@@H](O)COCc3ccco3)[C@H]2O)c1`?
Lassa entry: 10.2%[8.59 µM]; MARV entry inh: inconclusive

What do the screens show for `O=C(O)c1ccc(CCN2CCN(CC=Cc3ccc(Cl)cc3)CC2)cc1`?
Lassa entry: 0.1%; MARV entry inh: 10.5%

How did CC(C)(C)c1cc(/C=C(\C#N)C(N)=S)cc(C(C)(C)C)c1O do in these assays?
Lassa entry: 28.2µM*; MARV entry inh: 4.47µM*

What do the screens show for `CCC(C)CC(C)CC(C)C(=O)/C=C(/O)C(C)CC(C)C/C=C/C(C)C(O)C(C)C(O)CC1CCC(C)(C)O1` (stereo unspecified)?
Lassa entry: -20.8%; MARV entry inh: inconclusive

Results for CCCCNCCS(=O)(=O)NCc1ccccc1 ?
Lassa entry: 8.1%; MARV entry inh: 2.3%

What do the screens show for `COc1cccc(CNS(=O)(=O)c2ccccc2Br)c1OC`?
Lassa entry: 10.0%; MARV entry inh: inconclusive

Results for O=C(c1ccc(F)c(F)c1)N1CCOc2ccc(CN3CCN(CCO)CC3)cc2C1 ?
Lassa entry: 9.6%; MARV entry inh: 3.0%

Results for COC(=O)[C@@H]1C[C@H](NC(=O)c2ccccc2C(F)(F)F)CN1Cc1cccc(O)c1 ?
Lassa entry: -4.4%; MARV entry inh: -9.9%

Results for C=C1C2CC[C@@]3(C)C(c4ccoc4)OC(=O)C[C@@]13OC1CC(OC(C)=O)C(C)(C)C(CC(=O)OC)[C@@]12C (stereo partly specified) ?
Lassa entry: inconclusive; MARV entry inh: 12.6µM*

Results for Cc1nc2n(c(=O)c1CCN1CCC(c3noc4cc(F)ccc34)CC1)CCC[C@H]2O ?
Lassa entry: -13.6%; MARV entry inh: inconclusive

Results for Nc1nc(Nc2ccccc2)nc2c1ncn2[C@@H]1O[C@@H](CO)[C@H](O)[C@H]1O ?
Lassa entry: -0.2%; MARV entry inh: 0.3%

How did O=C(Nc1ccc(F)cc1)OC[C@@H]1CSCCS(=O)(=O)N1 do in these assays?
Lassa entry: 37.9%[activator]; MARV entry inh: 26.6%

Results for O=C(Nc1cccc(C(=O)N2CCCCC2)c1)C1CCC1 ?
Lassa entry: 8.2%; MARV entry inh: 5.5%

How did Cc1ccc2[nH]c(C(=O)N3CCc4c(cnc(C)c4CNC(=O)c4ccccc4F)C3)cc2c1 do in these assays?
Lassa entry: -1.5%; MARV entry inh: -18.5%

How did CC(C)[C@H]1COCCS(=O)(=O)N1Cc1ccccc1-c1ccc(F)cc1 do in these assays?
Lassa entry: 3.9%; MARV entry inh: -20.8%

What do the screens show for `CCCNC(=O)CC1OC(C2CCCCC2)Cc2ccccc21` (stereo unspecified)?
MARV entry inh: -26.1%[8.59 µM]

Results for COc1c(C=O)c(=O)[nH]c2c(OC)cccc12 ?
Lassa entry: -9.0%; MARV entry inh: 0.3%

What do the screens show for `Cc1cnc(CNc2nc(-c3cccnc3)nc3ccccc23)cn1`?
Lassa entry: -14.7%; MARV entry inh: -7.2%

How did CN1CCN(C(=O)O[C@H]2c3nccnc3C(=O)N2c2ccc(Cl)cn2)CC1 do in these assays?
Lassa entry: 0.9%; MARV entry inh: -18.9%

What do the screens show for `COc1cc([C@H]2c3cc4c(cc3[C@@H](O)[C@@H]3COC(=O)[C@H]23)OCO4)cc(OC)c1OC`?
Lassa entry: -21.4%[17.8 µM]; MARV entry inh: -67.7%[17.8 µM]

How did CC1(C)O[C@H]2O[C@H]([C@H](O)CON=C3[C@H]4CCn5c(=O)n(-c6ccccc6)c(=O)n5[C@@H]4[C@H](O)[C@@H]4O[C@H]34)[C@H](O)[C@@H]2O1 do in these assays?
Lassa entry: 20.2%[8.59 µM]; MARV entry inh: 38.7%[activator][8.59 µM]

Results for C=CCCCN1C=C(C(C)=O)C(c2ccccc2)NC1=O (stereo unspecified) ?
Lassa entry: 27.8%[8.59 µM]; MARV entry inh: 18.2%[8.59 µM]

How did C[C@@H]1CO1 do in these assays?
Lassa entry: -4.0%; MARV entry inh: 5.0%

How did c1cc(CN2CCCNCCNCCCNCC2)ccc1CN1CCCNCCNCCCNCC1 do in these assays?
Lassa entry: -11.2%; MARV entry inh: 15.4%

How did CN1C(C(=O)Nc2ccccn2)C(=O)c2sc(Cl)cc2S1(=O)=O (stereo unspecified) do in these assays?
Lassa entry: -0.5%; MARV entry inh: 0.1%

How did CN(C)Cc1ccccc1-c1nccc(NCc2cccs2)n1 do in these assays?
Lassa entry: -29.5%; MARV entry inh: inconclusive

How did Cc1ccccc1CN1[C@@H](c2ccccc2)COc2c(Cl)cccc2S1(=O)=O do in these assays?
Lassa entry: inconclusive; MARV entry inh: inconclusive

What do the screens show for `NCCCNCCCCNCCCNC(=O)Cc1ccc(O)cc1`?
Lassa entry: inconclusive; MARV entry inh: -27.6%[8.59 µM]

How did O=C(/C=C/c1ccccc1)c1ccccc1O do in these assays?
Lassa entry: 4.2%; MARV entry inh: 2.0%

Results for COc1ccccc1CNC(=O)c1cccc(-c2ccc(C)c3ccccc23)n1 ?
Lassa entry: -12.8%; MARV entry inh: -2.3%

Results for CN(C)Cc1ccccc1-c1ccc2ncnc(NC3CC3)c2c1 ?
Lassa entry: -11.3%; MARV entry inh: inconclusive

Compounds shown so far that have two or more sulfur atoms (two):
How did O=C(Nc1ccc(F)cc1)OC[C@@H]1CSCCS(=O)(=O)N1 do in these assays?
Lassa entry: 37.9%[activator]; MARV entry inh: 26.6%

How did CN1C(C(=O)Nc2ccccn2)C(=O)c2sc(Cl)cc2S1(=O)=O (stereo unspecified) do in these assays?
Lassa entry: -0.5%; MARV entry inh: 0.1%

(further entries)
What do the screens show for `COC(=O)CC=C[C@@H](C)[C@H](O)c1ccccc1Br`?
Lassa entry: -19.4%&-13.1%[8.59 µM]; MARV entry inh: -21.6%&-28.6%[8.59 µM]

What do the screens show for `C[C@H]1N[S+](=O)([O-])c2cccc(Cl)c2O[C@H]1c1ccccc1`?
Lassa entry: -10.7%; MARV entry inh: -20.5%

Results for COc1ccc2c(c1)O[C@@H](c1cccc(C(F)(F)F)c1)[C@H](O)C2=O ?
Lassa entry: -14.1%; MARV entry inh: inconclusive

What do the screens show for `OC[C@@H]1OC(O)[C@@H](O)[C@H](O)[C@@H]1O` (stereo partly specified)?
Lassa entry: -7.5%; MARV entry inh: 9.1%

What do the screens show for `Cc1ccc(S(=O)(=O)N2CCCN(S(=O)(=O)c3ccccc3Br)CC2)cc1`?
MARV entry inh: 35.1%[activator]

What do the screens show for `COc1cc(N)c(Cl)cc1C(=O)NC1CCN(Cc2ccccc2)CC1`?
Lassa entry: -1.5%; MARV entry inh: inconclusive

Results for CC[C@H](NC(=O)c1c(C)c(-c2ccccc2)nc2ccccc12)c1ccccc1 ?
Lassa entry: inconclusive; MARV entry inh: -18.3%

What do the screens show for `CC(C)ON(CC(=O)NO)S(=O)(=O)c1ccc(-c2ccccc2)cc1`?
Lassa entry: -25.6%; MARV entry inh: 13.4%

What do the screens show for `Cc1ccccc1-c1cncnc1NC1CCNCC1`?
Lassa entry: -2.9%; MARV entry inh: -8.8%

Results for COc1cc(OC)c2c(-c3cccc(-c4cccc(C)c4)c3)cc(=O)oc2c1 ?
Lassa entry: inconclusive; MARV entry inh: inconclusive

Results for O=c1[nH]c2cc(C(F)(F)F)ccc2n1-c1cc(C(F)(F)F)ccc1O ?
Lassa entry: -22.4%&-0.6%; MARV entry inh: 0.7%&-11.3%

Results for CN(C)CCc1c[nH]c2cccc(OP(=O)(O)O)c12 ?
Lassa entry: -24.3%; MARV entry inh: -6.7%

What do the screens show for `CSc1ncccc1C(=O)N1CCOc2ccc(C(C)(O)CCn3cccn3)cc2C1` (stereo unspecified)?
Lassa entry: 5.6%; MARV entry inh: -15.1%

What do the screens show for `CCCCCCCCCCCCCCCC(=O)OC[C@H](COP(=O)([O-])OCC[N+](C)(C)C)OC(=O)CCCCCCCCCCCCCCC`?
Lassa entry: -10.2%; MARV entry inh: 0.8%

How did Nc1c(CC(=O)O)cccc1C(=O)c1ccccc1 do in these assays?
Lassa entry: -11.1%&-7.2%; MARV entry inh: 11.8%&8.2%

Filtered by structure, the entries above with a tert-butyl group.
Results for CCOP(=O)(OCC)C(=Cc1cc(C(C)(C)C)c(O)c(C(C)(C)C)c1)P(=O)(OCC)OCC ?
Lassa entry: inconclusive; MARV entry inh: -5.6%

What do the screens show for `COC(=O)N[C@H](C(=O)N[C@@H](Cc1ccccc1)[C@@H](O)CN(Cc1ccc(-c2ccccn2)cc1)NC(=O)[C@@H](NC(=O)OC)C(C)(C)C)C(C)(C)C`?
Lassa entry: inconclusive; MARV entry inh: inconclusive

How did CC(C)(C)c1cc(/C=C(\C#N)C(N)=S)cc(C(C)(C)C)c1O do in these assays?
Lassa entry: 28.2µM*; MARV entry inh: 4.47µM*

Continuation.
What do the screens show for `C/C=C(\CC)C(=O)NC(N)=O`?
Lassa entry: 2.9%; MARV entry inh: -7.0%

Results for CSc1ccc(COCC[C@@H]2C[C@H]3C=CCOP(=O)(O2)O3)cc1 ?
Lassa entry: 1.7%; MARV entry inh: -21.7%

What do the screens show for `COC(=O)c1cc(CNC(=O)c2cccc(C)c2)cc(NC(=O)c2ccncc2)c1`?
Lassa entry: 0.8%; MARV entry inh: -5.6%

What do the screens show for `O=C(/C=C/c1ccccc1)c1ccc(O)cc1O`?
Lassa entry: 4.0%; MARV entry inh: inconclusive

How did CCCCCCCCCCCCCCCCCCOC[C@H](COP(=O)([O-])OCC[N+](C)(C)C)OC(C)=O do in these assays?
Lassa entry: 6.9%&-0.1%; MARV entry inh: 18.3%&26.7%

What do the screens show for `O=c1cc(-c2cccc(O)c2)oc2cc(O)ccc12`?
Lassa entry: 18.0%; MARV entry inh: 39.0%[activator]

How did O=C(O)CCCCC(=O)O do in these assays?
Lassa entry: -11.0%; MARV entry inh: 3.3%

What do the screens show for `CC(C)(C)OC(=O)NCCCC1=CC2=CC(=O)C(C)(OC(=O)c3ccco3)C(=O)C2=CO1` (stereo unspecified)?
Lassa entry: -13.6%; MARV entry inh: -1.5%

Results for COc1ccc(-n2c(CCNC(=O)c3ccc(-c4cccc(F)c4)cc3)nnc2SC)cc1 ?
Lassa entry: -22.5%; MARV entry inh: 7.5%

Results for COc1ccc(-n2c(CNC(=O)c3cc(C(F)(F)F)ccc3Cl)nnc2SC)cc1 ?
Lassa entry: 0.2%; MARV entry inh: -7.5%

Results for O=C(Nc1n[nH]c2cc(-c3ccccc3)ccc12)C1CC1 ?
MARV entry inh: inconclusive

Results for COC1CC(OC2CC[C@@]3(C=O)C4CC[C@]5(C)C(C6=CC(=O)OC6)CC[C@@]5(O)C4CC[C@]3(O)C2)OC(C)C1O (stereo partly specified) ?
Lassa entry: 0.282µM*; MARV entry inh: 0.251µM*

How did COc1ccc2c(c1OC)C(=O)N1c3ccccc3C(=O)OC21 (stereo unspecified) do in these assays?
Lassa entry: -10.1%; MARV entry inh: 0.1%
